Source: PubChem BioAssay (National Center for Advancing Translational Sciences (NCATS))
PINK1 modulator = A Quantitative High throughput Screen to Identify Chemical Modulators of PINK1 Expression; 410,000 compounds, 0.2% hits; Potency, µM (doses to about 76.6 µM), for the others: top-dose activation (PINK1 increase), most hits filed as activators; PINK1 immunofluorescence, high-content cytometry, 24 h; active = well fitted activation curve with a large enough effect; inconclusive = small, poorly fitted or top-dose-only effect; inactive = flat fitted curve, though single readings scatter; cell line not stated here;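 note: potency is the fitted concentration of half-maximal effect; % of control where 0% means no effect; nearly all actives have a fitted effect of over 65% in size; a mitochondrial uncoupler was the plate control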
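Cells are seeded, rested 12 hours, then given compound at five concentrations or DMSO for 24 hours. After fixation, blocking and antibody staining, PINK1 amount and mitochondrial localization are scored; CCCP serves as control.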
D2 agonist = Beta-Arrestin HTS for Positive Allosteric Modulators of the Human D2 Dopamine Receptor: Agonists. D(2) dopamine receptor (Homo sapiens), P14416. DiscoveRx PathHunter D2 beta-arrestin, luminescence, 90 min; 100% = 57 uM dopamine signal. activation, % (no concentration beside the values). 360,000 compounds, 0.084% hits. AID 624465, 2012; in the data active = activation above about 40%; inconclusive = about 15% to 40%; inactive = below about 15%; note: compound concentration not given in the record; the text of the record calls up to 30% inactive
Target sequence (P14416 whole entry, looked up): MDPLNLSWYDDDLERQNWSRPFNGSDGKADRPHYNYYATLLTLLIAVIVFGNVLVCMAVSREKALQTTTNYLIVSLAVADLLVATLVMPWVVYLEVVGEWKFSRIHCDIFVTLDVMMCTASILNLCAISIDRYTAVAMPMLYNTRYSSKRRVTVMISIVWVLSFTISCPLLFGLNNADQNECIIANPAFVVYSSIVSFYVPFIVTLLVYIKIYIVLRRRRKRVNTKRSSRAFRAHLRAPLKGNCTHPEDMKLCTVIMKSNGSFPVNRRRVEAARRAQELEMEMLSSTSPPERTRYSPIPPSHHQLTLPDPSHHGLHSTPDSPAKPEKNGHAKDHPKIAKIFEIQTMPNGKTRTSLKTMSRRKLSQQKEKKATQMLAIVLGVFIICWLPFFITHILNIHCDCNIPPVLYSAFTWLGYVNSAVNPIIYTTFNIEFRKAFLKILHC
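Agonist mode: compounds alone added to overnight-plated D2 PathHunter cells for 90 min at 37 C, with 57 uM final dopamine (EC100) defining full response. Beta-arrestin recruitment detected by chemiluminescent reagent, read after 1 h at ambient temperature.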
TRPML1 ag = qHTS for Agonists of the Human Mucolipin Transient Receptor Potential 1 (TRPML1); Mucolipin-1 (Homo sapiens), Q9GZU1; TRPML1-expressing cells, Ca2+ dye fluorescence, FDSS; host cell line not named in the record; reference of the full effect not given here; activation, % (no concentration beside the values); 410,000 compounds, 0.12% hits; AID 624414, 2012; in the data active = activation above about 50%; inconclusive = about 30% to 50%; inactive = below about 30%; note: 0% is about no effect; the text of the record puts the active cut at 80%
Target sequence (Q9GZU1 whole entry, looked up): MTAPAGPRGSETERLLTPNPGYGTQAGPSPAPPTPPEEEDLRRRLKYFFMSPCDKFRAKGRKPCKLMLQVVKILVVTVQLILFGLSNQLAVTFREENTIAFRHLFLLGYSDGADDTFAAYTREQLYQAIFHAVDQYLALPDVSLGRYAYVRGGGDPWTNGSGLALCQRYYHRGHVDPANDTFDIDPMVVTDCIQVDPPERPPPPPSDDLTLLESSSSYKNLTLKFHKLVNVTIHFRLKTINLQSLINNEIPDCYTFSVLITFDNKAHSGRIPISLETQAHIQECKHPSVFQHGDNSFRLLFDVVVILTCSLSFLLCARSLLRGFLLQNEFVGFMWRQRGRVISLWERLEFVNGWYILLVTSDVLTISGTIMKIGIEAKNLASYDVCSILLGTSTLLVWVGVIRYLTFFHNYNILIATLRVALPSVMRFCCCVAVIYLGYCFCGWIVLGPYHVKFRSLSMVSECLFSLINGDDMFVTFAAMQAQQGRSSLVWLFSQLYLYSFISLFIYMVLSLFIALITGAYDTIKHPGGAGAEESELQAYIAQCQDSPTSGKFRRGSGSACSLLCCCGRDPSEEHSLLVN
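Kinetic FDSS Ca2+ read in Tet-induced TRPML1-DL cells (ABD Ca8 dye plus quencher, 45-90 min RT loading): baseline, then compound, then 110 s agonist window; EC80 agonist 54-4 at 4uM final added afterwards for a 110 s antagonist window.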
Six1-Eya2 blk = qHTS Assay for Inhibitors of the Six1/Eya2 Interaction. Homeobox protein SIX1 (Homo sapiens) + Protein phosphatase EYA2 (Homo sapiens), …. AlphaScreen GST-Six1/His-Eya2 binding, biochemical; hits give low values; control for the full effect not named in the record. activity change, % (test concentration not listed). 360,000 compounds, 0.56% hits; in the data active = activity change below about -65%; inconclusive = about -30% to -65%; inactive = above about -30%; note: % is set by controls: 0 for no effect and ±100 for the full control effect
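Homogeneous AlphaScreen proximity assay pairing GST-Six1 with His-tagged Eya2 (added as 5X mix: 250 nM and 500 nM) in 50 mM Tris pH 8.0, 300 mM NaCl, 1 mM TCEP. Glutathione donor and nickel acceptor beads; 1 h, 37 °C, dark.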
TRPML1 blocker = qHTS for Inhibitors of the Human Mucolipin Transient Receptor Potential 1 (TRPML1) | TRPML1-inducible cells, Ca2+ dye fluorescence, FDSS; hits give low values; inhibition of EC80 agonist-evoked calcium signal | activity change, negative = inhibition, % (concentration not given with the values) | AID 624415, 2012 | 390,000 compounds, 0.02% hits; in the data active means activity change below about -50%; inconclusive means about -30% to -50%; inactive means above about -30%;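 note: stimulus is agonist 54-4 at its EC80 concentration; % is set by controls: 0 for no effect and ±100 for the full control effect; the text of the record puts the active cut at -80%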
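Tet-induced TRPML1-DL cells loaded with Ca8 no-wash calcium dye were read kinetically on FDSS. Compound addition was followed by EC80 agonist 54-4 (4 uM final); inhibition was read over 110 s.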
CtBP-E1A blk = qHTS Assay for Inhibitors of the CtBP/E1A Interaction | 340,000 compounds, 0.49% hits | CtBP / adenovirus E1A interaction (AlphaScreen) | activity change, % (test concentration not listed) | AlphaScreen GST-E1A/His-CtBP binding, 1536-well; hits give low values; control for the full effect not named in the record; in the data active means activity change below about -65%; inconclusive means about -30% to -65%; inactive means above about -30%; note: % is set by controls: 0 for no effect and ±100 for the full control effect
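In 5 uL wells, 23 nL compound meets equimolar GST-E1A and His-CtBP (5X stock 125 nM each) for 2 h, 37 °C. Beads (5X, 50 ug/mL) then 1 h, 37 °C, dark.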
* marks the source's active call; other numbers are inactive results; ? = inconclusive; / = no result given; [ ] = dose if it differs, or a comment.

SMILES	PINK1 modulator	D2 agonist	TRPML1 ag	Six1-Eya2 blk	TRPML1 blocker	CtBP-E1A blk
Cc1cc(C(=O)CN2C(=O)C(=O)N(CC(C)C)C2=O)c(C)n1C1CC1	-0.7%	-3.2	2.5	-2	-11	-17
Fc1ccc(-c2nc3ccccn3c2NCc2ccc3c(c2)OCO3)cc1	0.4%	5.2	2.4	-8	51	5
CCOc1ccc(NC(=O)CSc2nnc(Cn3cnc4ccccc43)n2C)cc1	0.7%	-1.9	-0.4	-3	-2	-1
COC(=O)c1ccc(CNC(=O)Cn2cnc3c(NCc4ccccc4)ncnc32)cc1	13%	3.4	-0.4	-20	0	-2
COc1cccc(CNC(=O)COC(=O)c2c(C)nn(-c3ccccc3)c2Cl)c1	-0.2%	0.0	2.6	-1	4	0
COc1ccccc1CNC(=O)CN1c2cccc3cccc(c23)S1(=O)=O	-0.7%	3.2	-0.5	8	6	5
CCn1c(CNC(=O)c2ccc(OC)c(OC)c2)nnc1SCC(=O)c1ccc(OC)cc1	-2.1%	-2.2	-0.8	-5	13	-1
COc1cccc(NC(=O)Nc2cc(C(=O)NC(C)C)ccc2N2CC3CC(C2)c2cccc(=O)n2C3)c1 (configuration not stated)	2.7%	2.0	0.2	2	-14	1
O=C(CCN1C(=O)c2ccccc2Sc2ncccc21)Nc1ccc(F)cc1	-0.6%	/	-0.5	/	1	/
CCCN1CCN(C(=O)c2ccc(S(=O)(=O)N(C)c3ccccc3OC)cc2)CC1	1.6%	-0.2	-0.8	-12	-3	-1
O=C(Nc1ccc(OC(=O)c2ccco2)cc1)c1ccco1	-1.1%	2.6	-0.7	4	-20	-2
COc1cccc2c1cc1c(=O)n(CC(=O)NCc3ccco3)nc(C)n12	0.0%	/	0.9	/	-3	/
Cc1csc(SCC(=O)NC23CC4CC(CC(C4)C2)C3)n1	-0.3%	-2.6	-1.3	3	18	-1
Nn1c(=O)[nH]c2ccccc2c1=O	-0.2%	-4.8	/	4	/	1
COc1ccc(C(=O)NC(CCSC)C(=O)NC2CC2)cc1 (configuration not stated)	-0.8%	-2.0	-0.7	25	-18	2
CCOc1ccc(NC(=O)CSc2nc(N)c(-c3ccccc3)c(=O)[nH]2)cc1	-0.6%	-5.0	-0.7	3	-16	2
Cc1cc(C(=O)COC(=O)c2nccnc2N)c(C)n1C	-0.8%	-1.0	0.1	-6	-9	23
Cc1ccc(C)n1NC(=O)c1ccccc1[N+](=O)[O-]	2.5%	1.1	0.3	-4	40	-4
Cc1ccc(NC(=O)C2CCC(CNS(=O)(=O)c3cccc4nsnc34)CC2)c(Cl)c1 (configuration not stated)	2.1%	/	0.6	/	-3	/
COc1ccc([C@H]2CC(=O)C=C(/C=C/c3ccccc3)C2)cc1OC	3.6%	1.2	1.7	-26	33	/
Cn1ccc(NC(=O)c2ccc([N+](=O)[O-])cc2)n1	-0.8%	-0.4	0.6	0	13	/
Cc1ccc(C)c(Cn2cnc3c(cnn3-c3ccc(F)cc3)c2=O)c1	-1.7%	/	0.9	/	4	/
CC1=C(C(=O)OCc2ccccc2)C(c2ccc([N+](=O)[O-])cc2)NC(=O)N1CCCC(=O)O (configuration not stated)	-0.1%	-5.2	-0.6	-6	2	-1
CCOC(=O)N1CCN(CC(=O)Nc2cccc(Br)c2)CC1	-2.7%	-0.8	-1.2	1	28	-6
CCOc1ccc(Cl)cc1-c1cc(C(=O)NCc2ccccc2OC)[nH]n1	0.9%	7.8	-0.1	2	/	-15

(more compounds)
SMILES	PINK1 modulator	D2 agonist	TRPML1 ag	Six1-Eya2 blk	TRPML1 blocker	CtBP-E1A blk
CC(C)=CCN1CCNC(=O)C1CC(=O)NCc1nc(C)c(C)s1 (configuration not stated)	-0.7%	-3.0	0.1	0	23	5
CS(=O)(=O)c1ccc([C@@H](O)[C@@H](CO)NC(=O)C(Cl)Cl)cc1	-0.7%	3.0	0.3	3	-4	-20
C=CCOc1nc(-c2ccccc2Cl)nc2ccccc12	13%	-3.2	1.7	38	25	28
COc1ccc(NS(=O)(=O)c2ccc3c(c2)oc(=O)n3C)c(OC)c1	0.2%	3.6	-0.1	4	-5	4
COc1cccc(N2CC(NC(=O)c3ccc(S(=O)(=O)N4CCCC4)cc3)CC2=O)c1 (configuration not stated)	-0.9%	/	-0.6	/	7	/
C=CCC(C(=O)OC)(C(=O)OC)c1ccccc1[N+](=O)[O-]	0.9%	0.9	-0.5	4	41	-2
Cn1nc(C(=O)OCC(=O)NCCc2ccccc2)c2ccccc2c1=O	0.0%	-4.4	1.1	2	1	-1
O=C(O)c1ccccc1/C=N/NC(=S)NC1CCCCC1	1.5%	-2.2	-0.1	6	37	2
CCCN1CCN(c2ncnc3c2nnn3Cc2ccccc2)CC1	0.6%	-6.5	0.5	-13	22	-5
COc1ccc2nc(-c3ccccn3)[nH]c2c1	0.2%	-4.1	1.2	-24	23	-21
COc1ccc(S(=O)(=O)N2CCOC23CCN(C(=O)c2ccccc2OC)CC3)cc1	2.6%	0.2	-0.7	2	-24	-4
COc1ccc(CC(=O)OCC(=O)NC2CCCCCC2)cc1OC	-1.7%	-1.4	-0.1	5	11	2
O=C(NC(=S)Nc1c(Cl)ccc2nsnc12)c1ccco1	3.6%	-1.9	1.5	1	-2	-10
Cn1nnnc1SCc1c(F)cccc1F	-0.7%[38.3 µM]	-1.2	-0.4	1	-3	8
CC(CCc1ccccc1)NC(=O)C1CCC1 (configuration not stated)	3.1%	-4.4	-0.7	3	-3	6
Cc1ccc(NC(=O)C2C3C=CC(O3)C2C(=O)O)c(C)c1 (configuration not stated)	-1.5%	-2.1	-0.2	4	13	6
CC1(C)CCC[C@]2(C)C(CS(=O)c3ccccc3)=C(C=O)CC[C@@H]12 (some centres not stated)	?	-4.8	0.1	1	10	8
O=C(CSc1nc(C2CCCCC2)nc2ccccc12)N1CCCC1	-0.8%	-1.5	0.5	-3	7	8
Cc1cc(C)c(C#N)c(Nc2ccccc2Cl)n1	2.2%	3.6	0.5	10	31	4
c1ccc2c3c(cc(N4CCOCC4)c2c1)OC1(N2CCOCC2)CCCCC1O3 (configuration not stated)	/	4.0	0.3	-8	14	11
CC(=O)Nc1cc(C(=O)NCc2ccc(F)cc2)ccc1S(=O)(=O)c1ccc(C)cc1	-5.6%	/	2.2	/	-19	/
CCc1nnc(NC(=O)CSc2nnc(-c3ccco3)n2C)s1	0.8%[38.3 µM]	-1.9	-0.6	-1	-2	0
COc1cc(NC(=O)CSc2nc3[nH]ncc3c(=O)n2-c2ccccc2)cc(OC)c1OC	15%	0.7	-0.8	-4	-8	-6
COc1ccc(CCC(=O)NC(C)c2ccccc2)cc1OC (configuration not stated)	0.8%	-1.5	-0.6	18	-13	/
N#CNC(=Nc1cccc(F)c1)SCc1ccccc1	1.3%	2.3	0.2	2	55	/

2 entries from above in a different format.
Molecule | PINK1 modulator | D2 agonist | TRPML1 ag | Six1-Eya2 blk | TRPML1 blocker | CtBP-E1A blk
COc1ccc2nc(-c3ccccn3)[nH]c2c1 | 0.2% | -4.1 | 1.2 | -24 | 23 | -21
COc1ccc(S(=O)(=O)N2CCOC23CCN(C(=O)c2ccccc2OC)CC3)cc1 | 2.6% | 0.2 | -0.7 | 2 | -24 | -4

(more compounds)
SMILES	PINK1 modulator	D2 agonist	TRPML1 ag	Six1-Eya2 blk	TRPML1 blocker	CtBP-E1A blk
CC(=O)N1CCN(Cc2nc3cc(NC(=O)c4cccs4)ccc3n2C)CC1	2.1%	-2.3	0.0	-2	12	-15
Cc1ccc(Cc2nc3ccccc3nc2SCC(=O)N2CCCCC2)cc1	0.5%	/	2.2	/	-1	/
CCOc1ccc(CN2CCN(Cc3cnc(N4CCOCC4)s3)CC2CCO)cc1 (configuration not stated)	0.6%	-0.9	1.0	6	?	-2
c1ccc(CSc2nnc(Cc3ccccc3)o2)cc1	3.1%	-1.2	2.4	47	-19	5
CN(c1ccccc1)S(=O)(=O)c1nnc(NC(=O)c2ccccc2)s1	-0.6%	/	2.1	/	-20	/
CCc1nc(SCc2ccc([N+](=O)[O-])cc2)n[nH]1	-1.1%	2.6	3.7	8	-8	0
Cn1nc(-c2ccc(C(=O)NC3CCCCC3)cc2)c2ccccc2c1=O	1.7%	-2.8	-0.3	-7	23	1
CCc1noc(C)c1C(=O)NNC(=O)COc1ccc(Br)cc1	0.3%	-1.9	0.0	-10	23	2
FC(F)(F)c1ccc(-n2cnc3ccccc32)nc1	-0.2%	-2.7	0.9	0	2	-6
COc1ccc(-c2cn3nc(N4CCCC(C(=O)NCc5ccccc5OC)C4)sc3n2)cc1 (configuration not stated)	-0.9%	/	0.8	/	-1	/
Cc1cccc(NC(=O)C2CCCN(c3nc4ccccc4s3)C2)c1C (configuration not stated)	0.1%	/	0.2	/	0	/
Cc1ccccc1OCC(=O)NCC(c1cccs1)N1CCOCC1 (configuration not stated)	-2.7%	-0.2	0.5	-6	6	6
Cc1nn(C)cc1/C=N\NC(=O)c1ccc(Cn2cc(Cl)cn2)cc1	2.4%	-1.4	-0.2	-17	5	-15
COc1ccccc1/C=N/NC(=O)CC(=O)NC1CCCCC1	1.2%	-0.7	2.4	-1	3	11
Brc1ccc(Oc2ncc(CN3CCN(c4ccccc4)CC3)s2)cc1	2.5%	45*	3.4	?	-15	-15
N#CC1=C(N)OC2=C(C(=O)CCC2)C1C1C=CCCC1 (configuration not stated)	1.5%	-4.4	-0.1	0	-9	5
COc1ccc(NC(=O)CSC2=C(C#N)C(c3ccco3)C(C(=O)Nc3nc4ccccc4s3)=C(C)N2)cc1 (configuration not stated)	4.1%	-0.8	-0.5	2	-4	1
O=C(COC(=O)C12CC3CC(CC(Cl)(C3)C1)C2)N1CCCCC1	-0.2%	-0.6	0.7	11	6	6
CC(C)(C)OC(=O)NCCCCCc1cn(CC(=O)NCCCCCCCCCCC(=O)N2CCN(C(=O)OC(C)(C)C)CC2)nn1	1.6%	-3.3	-0.3	7	1	-19
Cc1ccc(S(=O)(=O)N2CCN(CC(=O)N3CCOCC3)CC2)cc1	-1.0%	-8.5	6.4	1	10	10

Some of the entries above, set out differently:
Each structure is followed by: PINK1 modulator	D2 agonist	TRPML1 ag	Six1-Eya2 blk	TRPML1 blocker	CtBP-E1A blk
CN(c1ccccc1)S(=O)(=O)c1nnc(NC(=O)c2ccccc2)s1
    -0.6%	/	2.1	/	-20	/
CCc1nc(SCc2ccc([N+](=O)[O-])cc2)n[nH]1
    -1.1%	2.6	3.7	8	-8	0
Cn1nc(-c2ccc(C(=O)NC3CCCCC3)cc2)c2ccccc2c1=O
    1.7%	-2.8	-0.3	-7	23	1
CCc1noc(C)c1C(=O)NNC(=O)COc1ccc(Br)cc1
    0.3%	-1.9	0.0	-10	23	2
FC(F)(F)c1ccc(-n2cnc3ccccc32)nc1
    -0.2%	-2.7	0.9	0	2	-6
